# HSD17B inhib: blocks hydroxysteroid 17-beta dehydrogenase activity. Q99714. recombinant HSD17B10, NADH fluorescence kinetic; many of its hits are not listed in these tables. Potency, µM (titrated, usually from 57.1 µM), without a hit: top-dose activity change, negative = inhibition, most hits filed as inhibitors. actives 7.6% (n = 75,000). AID 893; active = well fitted inhibition curve with a large enough effect; inconclusive = small, poorly fitted or top-dose-only effect; inactive = no such curve, though single readings can be large or run the other way;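 also: the protocol describes HADH2 (HSD17B10) and not the HSD17B4 of the title; nearly all actives have a fitted effect of over 70% in size; most hits overshoot -100% by far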
#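 Enzyme plus compound, 15 min room temperature; substrate mix added (NAD+ 1 mM, beta-hydroxybutyryl-CoA 90 uM final); plates read kinetically for NADH fluorescence. HADH2 was His-tagged, E. coli-derived, 20 nM.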
# * = called active by the depositor; u = inconclusive; [ ] = remark or other dose. % is scaled to controls: 0 for no effect and ±100 for the full control effect; potency is read from the fitted curve at half-maximal effect. These rows are one share of the data; count on the stated rates, not on these rows.
canonical_smiles	HSD17B inhib
COc1ccc(NC(=O)CN2CCC(C)CC2)cc1	0%
COc1ccc(S(=O)(=O)n2nc(OC(=O)c3ccc(C)cc3)cc2N)cc1	-15%
Cc1ccc(CCC(=O)Nc2nccs2)o1	1%
CCOC(=O)CSc1nc2cc(C(=O)N3CCC(C(N)=O)CC3)ccc2c(=O)n1-c1ccccc1	6%
Cc1nc2ccc(Br)cn2c1NC(C)(C)C	-6%
CC(=O)N(C)C1(c2nnnn2CCOC(=O)Nc2cccc3ccccc23)CCCC1	-4%
CCOc1ccccc1-c1nc(-c2cc3ccc(C)cc3[nH]c2=O)no1	4µM*
Cc1nc(=O)c(-c2ccccc2)c(C)n1-c1ccccc1C(=O)O	14%
COc1ccc(S(=O)(=O)N[C@@H](Cc2ccccc2)C(=O)N2CC[C@@]3(O)CCCC[C@H]3C2)cc1	5%
CC1CCc2nn(CC(=O)NCCCN3CCCC3=O)cc2C1 (centres undefined)	4%
Cc1occc1-c1nnc(SCc2nnc(-c3ccc(Cl)cc3)o2)n1C	-24%
Cc1c(Br)cc(C(=O)O)c(C)c1C	8%
CCn1c(SCC(=O)c2cccs2)nnc1-c1cccs1	-1%
CCSc1nnc(NC(=O)C(Cc2ccccc2)n2cccc2)s1 (centres undefined)	-8%
C/C(=N\[N+](C)(C)C)c1ccc(C)c(C)c1	7%[11.4 µM]
N#Cc1c2n(c(=S)n(-c3ccccn3)c1=O)CCCCC2	-13%
Cc1cn(C(=O)CN2C(=O)c3ccccc3C2=O)c(C)n1	-13%
O=C(Nc1cccc(F)c1)N1CCC2(CC1)CCN(C(=O)c1csnn1)CC2	0%
Cc1cc(-c2cccs2)c2c(n1)sc1c(=O)[nH]c(=O)[nH]c12	u
COc1ccc(CNC(=O)Nc2ccc(C)cc2)cc1	-4%
Cn1c(SCC(=O)Nc2cc(=O)n(C)c(=O)n2C)nnc1C12CC3CC(CC(C3)C1)C2	-6%
COc1cc(OC)cc(C(C(=O)NCc2ccccc2)N(Cc2ccco2)C(=O)c2ccno2)c1 (centres undefined)	-5%
COc1ccccc1C1C(C(=O)c2cc3ccccc3o2)=C(O)C(=O)N1CCN1CCOCC1 (centres undefined)	-19%
Cc1cc(C)n2cc(CSc3nnnn3-c3ccccc3)nc2n1	u
CNc1nc(-c2ccccc2C)nc2ccccc12	-28%

# 2 entries drawn at random from the list so far, as already listed:
canonical_smiles	HSD17B inhib
COc1ccccc1C1C(C(=O)c2cc3ccccc3o2)=C(O)C(=O)N1CCN1CCOCC1 (centres undefined)	-19%
N#Cc1c2n(c(=S)n(-c3ccccn3)c1=O)CCCCC2	-13%

# Next compounds
canonical_smiles	HSD17B inhib
CCN(CC)C(=O)CSc1nnc(-c2cnccn2)n1-c1ccccc1	5%
CCc1nc(-c2ccccc2O)n(-c2ccccc2)n1	-19%
CN(C)CCCCN1CCc2c(n(C)c3ccccc23)C1=O	9%[11.4 µM]
CCOC(=O)CNS(=O)(=O)c1ccc(S(=O)(=O)N2CCCC2)cc1	1%
CC(=O)C(Sc1nc(-c2ccc(F)cc2)nc2c1c(=O)n(C)c(=O)n2C)C(C)=O	1%
CCOc1ccc(N(CC(=O)Nc2cccc(Cl)c2)S(=O)(=O)c2c(C)noc2C)cc1	-2%
CC[C@@H]1Cn2c(c3nc(-c4ccccc4)nc-3n(C)c2=O)N1	32µM*
Cn1cc(C(=O)OCC2CCN(CCNS(C)(=O)=O)CC2)c2ccccc21	-17%
Cn1c(CCNC(=O)c2ccco2)nc2cc(NC(=O)NC3CCCCC3)ccc21	-11%
COCCOC(=O)c1c(C)oc2ccc(NS(=O)(=O)c3ccccc3)cc12	4%
O=C(CSc1nc2c(c(=O)n1-c1ccc(Cl)cc1)SCC2)N1CCOCC1	-2%
COc1ccc(C2NC(C(=O)O)CS2)cc1COCC(F)(F)F (centres undefined)	13%
CC1(C)CC(=O)C=C(Nc2ccc(F)cc2)C1	0%
CN(C)C=NCCn1c(N2CCOCC2)nc2c1c(=O)n(C)c(=O)n2C	-2%
Cc1cccc(N2CCN(C(=O)COc3cc(=O)n(C)c4ccccc34)CC2)c1C	2%
COc1ccc2nc3c(cc2c1)Cc1ccccc1-3	32µM*
O=C(O)c1ccc2c(c1)C(=O)N(c1ccc(Cl)cn1)C2=O	-1%
COc1cc(C)nc(Oc2ccc(/C=N/O)cc2)n1	-5%
CCSC1(SCC)N=C(N)C2(C#N)C(c3ccc(OC)c(OC)c3OC)C12C#N (centres undefined)	-18%
NC[C@@H]1O[C@H](c2ccccc2)Cc2c1ccc(O)c2O	-8%
O=C(c1cc2ccccc2c(=O)o1)N1CCc2ccccc2C1	-11%
COc1ccc(C2c3c(oc4ccccc4c3=O)C(=O)N2CCCN2CCOCC2)cc1 (centres undefined)	19%
CN(CCC#N)C(=O)c1ccc(CNS(=O)(=O)c2ccc(F)cc2)cc1	-10%
O=C(CSc1ccc2nnc(-c3ccncc3)n2n1)NCc1ccco1	3%
CS(=O)(=O)N(CCc1ccccc1)CC(=O)NCC1CCCO1 (centres undefined)	1%

canonical_smiles	HSD17B inhib
CCC(C)NC(=O)c1ccc(CS(=O)(=O)c2ccc(OC)cc2)o1 (centres undefined)	-3%
COc1ccccc1C(=O)Nc1ccc2c(c1)nc1n2CCSC1	20µM*
O=C1c2ccccc2S(=O)(=O)N1Cc1cccc(S(=O)(=O)N2CCOCC2)c1	2%
C/C(=N/Nc1nc(C)cc(=O)[nH]1)C(=O)O	2%[11.4 µM]
CN1CCN(C(=O)C2CC(=O)N(c3ccc(F)c(Cl)c3)C2)CC1 (centres undefined)	2%
CCn1c(SCC(=O)NCc2ccco2)nnc1-c1cccs1	u
CC(C)(C)[Si](OCC[C@@H]1C[C@@]1(C)[C@@H](NP(=O)(c1ccccc1)c1ccccc1)c1ccccc1)(c1ccccc1)c1ccccc1	-19%
Cc1ccccc1C(=O)Nc1ccc(Cl)cn1	0%
Cc1ccc(-c2nnn(CCC(=O)Nc3ccc4c(c3)OCO4)n2)cc1	5%
N=C1C(c2nc(-c3ccc(Cl)cc3)cs2)=C(O)CN1CCCN1CCOCC1	5%
CCN(CC)CCOC(=O)C12CC3CC(CC(C3)C1)C2	-4%
CN(C)C(=O)c1ccc(-c2ccc3ncnc(NC4CC4)c3c2)cc1	-2%
COc1ccc2[nH]c(=O)c(-c3noc(-c4ccc(F)cc4)n3)cc2c1	u
COc1ccc(Nc2cc(=O)n(C3CCCCC3)c(=O)[nH]2)c(OC)c1	-4%
Cc1ccc(S(=O)(=O)N2C(=O)CCC2C(=O)NCc2ccco2)cc1 (centres undefined)	3%
O=C(CCCc1c[nH]c2ccccc12)N1CCOCC1	9%
CC(=O)c1c(C)[nH]c(C(=O)CSc2nc3ccccc3c(=O)n2CCCN2CCOCC2)c1C	-10%
O=C(C1CCCN(S(=O)(=O)c2cccc3cccnc23)C1)N1CCc2ccccc21 (centres undefined)	-3%
Cc1ccc2c(n1)sc1c(N)ncnc12	32µM*
S=c1c2[nH]cnc2ncn1CCSc1ncnc2nc[nH]c12	-1%[11.4 µM]
COc1ccc(C2CC(c3ccc(Cl)cc3Cl)Nc3nc(N)nn32)cc1OC (centres undefined)	1%
O=c1cnc2ccccc2n1CC1CCCCC1	25µM*
CCN(CC)S(=O)(=O)c1ccc(Oc2cccc(C(C)=O)c2)nc1	2%
CC(=O)Oc1cccc(N2C(=O)C3C4C=CC(C4=C(C)C)C3C2=O)c1 (centres undefined)	-3%
COc1ccccc1C(=O)NC(CCSC)C(=O)NCC(c1ccco1)N(C)C (centres undefined)	12%

Compound	HSD17B inhib
CCn1c2ccccc2c2nnc(SCC(=O)NCCOC)nc21	7%
CCn1c(=O)cc(OCC(=O)Nc2ccc(C)cn2)c2ccccc21	-8%
O=C(c1csnn1)N1CCC[C@@]2(CCN(c3ccncc3)C2)C1	-3%
CCOc1cc2[nH]c(=O)n(Cc3ccc(C(=O)NCCOC)cc3)c(=O)c2cc1OCC	u
COc1cc(OC)cc(-c2nc(-c3cc4cc(C)ccc4nc3OC)no2)c1	-3%
Cc1nc(N2CCc3ccccc32)[nH]c(=O)c1CCC(C)C	-3%
COc1ccc(N2CCN(Cc3cc(=O)oc4cc(C)c(Cl)cc34)CC2)cc1	6%
COc1ccc(OC)c(C2N(c3cc(C)on3)C(=O)C3CCCN32)c1 (centres undefined)	-6%
Cc1ccc(C)c2[nH]c(=O)c(CCNC(=O)c3ccc(Br)o3)cc12	-6%
O=C1c2ccccc2C(=O)c2c(Nc3cc4c5c(ccc6c7ccc8c9c(cc(Nc%10cccc%11c%10C(=O)c%10ccccc%10C%11=O)c(c3c56)c97)-c3ccccc3C8=O)C(=O)c3ccccc3-4)cccc21	-5%[11.4 µM]
Cc1cc(NC(=O)C(C)C)ncc1NC(=O)c1cccc(F)c1	0%
COc1ccc(C(=O)Oc2ccc(/C=N/O)cc2)cc1	3%
CCOC(=O)c1oc2c(CN3CCN(C)CC3)c(O)ccc2c(=O)c1-c1ccccc1OC	-2%
NC(=O)CC[C@H](N)C(=O)O	3%
Cc1nc2ncnn2c(C)c1CCC(=O)NCc1ccco1	7%
O=c1c2c3c(sc2nc2sc(CN4CCOCC4)cn12)CCCC3	-4%
CCOC(=O)NC(c1ccccc1)C1CCCCC1=O (centres undefined)	3%
CN(C)c1ccc(-c2nn3c(-c4ccncc4)nnc3s2)cc1	-2%
CCc1ccc(Cn2nnc(C(=O)Nc3cccc(C)c3)c2N)cc1	-25%
O=C(Nc1nc2ccccc2[nH]1)c1ccccc1F	-5%
Cc1ccc(-c2csc3nnc(SCC(=O)NCc4ccco4)n23)cc1	-5%
Cc1nc2ccccc2n1CC(=O)NCCN1CCCC1	4%
COc1ccc(C(=O)COC(=O)CN2C(=O)C3C4C=CC(C4)C3C2=O)cc1 (centres undefined)	5%
CC(=O)Nc1cccc(Oc2cc(C#N)c(C#N)cc2N2CCCCCC2)c1	u
N=C1C(c2ccccc2)=C(O)CN1c1ccccc1N1CCOCC1	7%

# In another format: entries from further up.
> O=c1c2c3c(sc2nc2sc(CN4CCOCC4)cn12)CCCC3
  HSD17B inhib: -4%

> CCOC(=O)NC(c1ccccc1)C1CCCCC1=O (centres undefined)
  HSD17B inhib: 3%

# Other compounds.
Compound	HSD17B inhib
Cn1c(N2CCCCC2)nc2c1c(=O)n(Cc1cccc(Br)c1)c(=O)n2C	8%
COc1ccc(C(=O)N2CCCC2)cc1	17%
O=C(NCc1ccc(F)cc1)c1cccc(S(=O)(=O)N2CCCC2)c1	3%
CCOC(=O)N1CCN(C(=O)CSc2cc(C)nc3c(-c4ccccc4OC)c(C)nn23)CC1	-28%
COC(=O)c1ccc(C2CC(=O)Nc3cc(OC)c(OC)c(OC)c32)cc1 (centres undefined)	5%
O=C(c1cc(-c2ccccc2O)on1)N1CCc2ccccc2C1	-4%
CCN(C(=O)c1c(-c2ccccc2)noc1C)c1ccccc1	-2%
Cc1cc(Br)ccc1NC(=O)C1CCCO1 (centres undefined)	1%
Cc1cc(C(=O)Nc2c(C)nn(Cc3ccccc3Cl)c2C)no1	4%
CCCN1C2CCCC1CC(NC(=O)c1ccc(F)cc1)C2 (centres undefined)	0%
COc1ccc(Cl)cc1C(=O)Nc1nnn(C)n1	-3%
CC(NC(=O)c1ccc(Cl)cc1)C(=O)N1CCCCC1 (centres undefined)	-7%
CN1CCN(CCCBr)CC1	12%[11.4 µM]
O=C(Nc1ccc(F)cc1)c1cccc2c1C(=O)N(Cc1ccccn1)C2	-5%
O=S(=O)(N1CCCCC1)N1CCCN(S(=O)(=O)N2CCCCC2)CC1	12%
COc1cccc(C(=O)Cn2c(=O)n(CC3CCCO3)c(=O)c3ccccc32)c1 (centres undefined)	-1%
Cc1c(C(=O)OC(C)CCN(C)C)oc2ccccc12 (centres undefined)	-3%
c1ccc(CSc2nnc(NC3=NCCCCC3)s2)cc1	-2%
CCOC(=O)C(CO)(NC(C)=O)C(=O)OCC	17%
c1cn(CCCNC2=NCCCCC2)cn1	8%
NC(=O)CSc1oc(-c2cccs2)nc1S(=O)(=O)c1ccccc1	u
Cc1ccc2[nH]c(=O)c(CN(Cc3nnnn3Cc3ccccc3)C3CCCC3)cc2c1	32µM*
FC(F)(F)c1ccccc1-c1cc(NCc2cccs2)ncn1	-7%
Cc1nn(-c2ccccc2)c(N2CCCCC2)c1/C=N/O	3%
CCCC(=O)NCCc1nc2ccccc2n1CCC	11%

# Of the compounds above, these contain a CF3 group:
Compound	HSD17B inhib
COc1ccc(C2NC(C(=O)O)CS2)cc1COCC(F)(F)F (centres undefined)	13%
FC(F)(F)c1ccccc1-c1cc(NCc2cccs2)ncn1	-7%

# (further entries)
Compound	HSD17B inhib
S=c1nc(C2CC2)[nH]c2ccccc12	4%
CC(C)NC(=O)NC(=O)COc1cccc2c1OC(C)(C)C2	1%
Cc1cc(NC(=O)CCCC(=O)O)nc(C)n1	1%
CCCn1c(SCC(=O)Nc2nnc(C)s2)nnc1-c1ccoc1C	9%
O=C1CNC(=O)N1Cc1ccc(Br)cc1	1%
O=C(c1ccc(CN2CCOCC2)cc1)N1CCC(Cc2ccccc2)CC1	4%
CN(C)c1nc(SCCOC(=O)Nc2ccccc2)nc(N(C)C)n1	-3%
O=C(NCc1cccs1)c1csc2c1CCCCC2	-2%
C(#Cc1ccccc1)CN1CCN(c2ccccn2)CC1	-6%
Cc1nc(NCC2CCCO2)c2nnn(Cc3ccccc3)c2n1 (centres undefined)	-3%

# 2 entries from above, field by field.
> O=C1CNC(=O)N1Cc1ccc(Br)cc1
- HSD17B inhib: 1%
> C(#Cc1ccccc1)CN1CCN(c2ccccn2)CC1
- HSD17B inhib: -6%

# High-throughput results from PubChem BioAssay.
